Six1-Eya2 blk – Six1/Eya2 interaction inhibition; activity change, % (test concentration not listed); 360,000 compounds, 0.56% hits; Q15475+O00167; AlphaScreen GST-Six1/His-Eya2 binding, biochemical; active compounds read low; control for the full effect not named in the record; in the data active = activity change below about -65%; inconclusive = about -30% to -65%; inactive = above about -30%; also: % is scaled to controls: 0 for no effect and ±100 for the full control effect
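AlphaScreen with GST-Six1 and His-Eya2 (5X mix: 250 nM and 500 nM), glutathione donor and nickel acceptor beads; buffer 50 mM Tris pH 8.0, 300 mM NaCl, 1 mM TCEP; 1 h at 37 C in the dark.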
TRPML1 ag – human mucolipin-1 channel agonism; Q9GZU1; TRPML1-expressing cells, Ca2+ dye fluorescence, FDSS; host cell line not named in the record; reference of the full effect not given here; activation, % (test concentration not listed); 410,000 compounds, 0.12% hits; AID 624414; in the data active = activation above about 50%; inconclusive = about 30% to 50%; inactive = below about 30%; also: 0% is about no effect; the text of the record puts the active cut at 80%
Target sequence (Q9GZU1 whole entry, looked up): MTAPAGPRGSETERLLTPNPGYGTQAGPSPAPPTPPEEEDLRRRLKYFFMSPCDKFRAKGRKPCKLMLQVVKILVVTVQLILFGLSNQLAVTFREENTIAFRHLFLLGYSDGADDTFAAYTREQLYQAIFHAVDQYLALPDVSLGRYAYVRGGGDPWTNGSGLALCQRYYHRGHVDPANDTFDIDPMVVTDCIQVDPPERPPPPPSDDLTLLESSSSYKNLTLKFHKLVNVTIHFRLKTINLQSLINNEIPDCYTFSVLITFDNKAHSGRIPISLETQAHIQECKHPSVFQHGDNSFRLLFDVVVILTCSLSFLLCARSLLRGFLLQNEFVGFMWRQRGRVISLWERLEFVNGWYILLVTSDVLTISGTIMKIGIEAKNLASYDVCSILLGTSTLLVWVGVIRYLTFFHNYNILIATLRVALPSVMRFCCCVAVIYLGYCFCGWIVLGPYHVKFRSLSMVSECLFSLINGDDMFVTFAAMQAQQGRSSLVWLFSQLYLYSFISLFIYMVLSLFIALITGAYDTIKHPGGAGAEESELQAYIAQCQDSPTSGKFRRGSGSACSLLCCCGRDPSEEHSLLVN
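Agonist activity was taken from a 110 s kinetic Ca2+ dye read on the FDSS after pinning compounds onto TRPML1-DL cells. The cells were seeded at 1,500/well with Tet inducer, incubated about 16 h, then dye-loaded at room temperature.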
D2 agonist – activates the human D2 dopamine receptor; P14416; DiscoveRx PathHunter D2 beta-arrestin, luminescence, 90 min; 100% = 57 uM dopamine signal; activation, % (test concentration not listed); 360,000 compounds, 0.084% hits; AID 624465; in the data active = activation above about 40%; inconclusive = about 15% to 40%; inactive = below about 15%; also: compound concentration not given in the record; the text of the record calls up to 30% inactive
Target sequence (P14416 whole entry, looked up): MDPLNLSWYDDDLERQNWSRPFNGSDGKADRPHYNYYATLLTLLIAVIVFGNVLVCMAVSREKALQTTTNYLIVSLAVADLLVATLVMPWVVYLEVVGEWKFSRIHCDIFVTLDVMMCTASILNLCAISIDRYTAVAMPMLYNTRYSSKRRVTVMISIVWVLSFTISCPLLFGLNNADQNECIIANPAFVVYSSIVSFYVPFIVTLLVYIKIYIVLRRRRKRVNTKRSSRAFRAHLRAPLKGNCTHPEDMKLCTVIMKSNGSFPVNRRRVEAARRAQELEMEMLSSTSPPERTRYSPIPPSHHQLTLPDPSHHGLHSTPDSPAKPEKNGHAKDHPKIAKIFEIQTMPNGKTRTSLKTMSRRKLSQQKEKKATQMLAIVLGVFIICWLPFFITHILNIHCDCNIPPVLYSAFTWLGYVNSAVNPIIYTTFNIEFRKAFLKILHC
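DiscoveRx PathHunter D2 beta-arrestin cells (2,100/well) attached overnight, then compound-stimulated 90 min at 37 C in HBSS/10 mM HEPES/0.1% Tween-20 buffer; beta-galactosidase complementation read by luminescence after 1 h at ambient temperature. Dopamine 57 uM final (EC100) as control.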
TRPML1 inh – human mucolipin-1 channel inhibition; Q9GZU1; TRPML1-inducible cells, Ca2+ dye fluorescence, FDSS; active compounds read low; inhibition of EC80 agonist-evoked calcium signal; activity change, negative = inhibition, % (test concentration not listed); 390,000 compounds, 0.02% hits; in the data active means activity change below about -50%; inconclusive means about -30% to -50%; inactive means above about -30%;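 also: stimulus is agonist 54-4 at its EC80 concentration; % is scaled to controls: 0 for no effect and ±100 for the full control effect; compound concentration not given in the record; the text of the record puts the active cut at -80%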
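TRPML1-DL cells, Tet-induced overnight (~16 h, 37 °C) at 1,500 cells/well, were loaded with Ca8 no-wash dye plus quencher for 45-90 min at room temperature. Compounds were pinned during FDSS kinetic reading; agonist 54-4 at EC80 (4 uM final) then added.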
CtBP-E1A blk – inhibitors of CtBP/E1A interaction; AlphaScreen GST-E1A/His-CtBP binding, 1536-well; active compounds read low; control for the full effect not named in the record; activity change, % (no concentration beside the values); 340,000 compounds, 0.49% hits; AID 651724; in the data active means activity change below about -65%; inconclusive means about -30% to -65%; inactive means above about -30%; also: % is scaled to controls: 0 for no effect and ±100 for the full control effect
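Homogeneous bead-based format: GST-tagged E1A captured on glutathione donor beads, His-tagged CtBP on nickel acceptor beads; compounds precede bead addition by 2 h at 37 °C.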
PINK1 expr mod – modulators of PINK1 expression; PINK1 immunofluorescence, high-content cytometry, 24 h; AID 624263; Potency, µM (series often up to 76.6 µM), without a hit: at the top dose activation (PINK1 increase), actives largely listed as activators; 410,000 compounds, 0.2% hits; active = well fitted activation curve with a large enough effect; inconclusive = small, poorly fitted or top-dose-only effect; inactive = flat fitted curve, though single readings scatter; cell line not stated here;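 also: potency is read from the fitted curve at half-maximal effect; % of control where 0% means no effect; nearly all actives have a fitted effect of over 65% in size; a mitochondrial uncoupler was the plate control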
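A stable cell line was treated with compounds at 5 concentrations for 24 hours, with CCCP as control. PINK1 levels and mitochondrial localization were measured by immunofluorescence with mitochondrial, cell and nuclear markers after fixation, read by laser-scanning cytometry.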
* hit, by the source's call; ? = inconclusive; · = not tested or not shown; & = joins results of further samples; [ ] = another dose, or the depositor's remark.

Below each compound: Six1-Eya2 blk, TRPML1 ag, D2 agonist, TRPML1 inh, CtBP-E1A blk, PINK1 expr mod
- O=C(C1=NN[C@@H]2C(=O)N(c3cccc(C(F)(F)F)c3)C(=O)[C@H]12)c1ccc2ccccc2n1
    3, 0.3, -5.4, 8, 1, 5.0%
- Cc1nnc(SCC(=O)Nc2ccc3c(c2)OCO3)o1
    5, -0.3, -2.1, -13, 4, 0.3%
- Cc1ccc2nc3c(cc2c1)c(NC(=O)c1ccco1)nn3CC(C)C
    1, -0.6, -4.2, 4, -2, 8.7%
- COc1cc(C2C(C(C)=O)=C(C)Nc3ncnn32)ccc1O (stereo not drawn)
    6, -0.7, -2.6, 5, 0, 1.6%
- O=C(CNC(=O)c1ccccc1F)NNC(=O)c1ccccc1O
    -5, 0.9, 0.4, -10, -20, -0.3%
- Cc1cccc(NCc2ccccc2O)c1
    -6, 0.0, -0.6, -21, -11, 2.4%
- CCOc1ccccc1NC(=O)CSc1ccc(-c2ccco2)nn1
    -19, -0.5, 2.9, 1, -12, 0.7%
- Cc1ccc(Cl)cc1Nc1nn2c(=O)c3ccc(C(=O)NC4CCCCC4)cc3nc2s1
    ·, -0.4, ·, 0, ·, 2.2%
- Cc1cc(C(=O)NC2CC(C)(C)Cc3c2cnn3-c2ccc(F)cc2)no1 (stereo not drawn)
    9, 1.4, 0.1, -10, 7, 4.1%
- COC(=O)c1c[nH]n2c(=O)c(C(C)C)c(C)nc12
    13, 0.0, 4.8, 3, 10, -1.1%
- CCOC(=O)C1CCN(c2c(NCCCN(CC)c3ccccc3)c(=O)c2=O)CC1
    0, 0.6, -0.9, -1, -2, 7.0%[38.3 µM]
- O=c1c2ccccc2nc(-c2ccco2)n1Cc1ccccc1
    -3, 4.9, -2.7, 16, -1, 4.3%[38.3 µM]
- O=C1C2C(C(=O)N1/N=C/c1cc(Br)cc([N+](=O)[O-])c1O)C1C=CC2C12CC2 (stereo not drawn)
    -6, -0.7, -8.1, 8, -12, 17%
- CCOCc1c(C(=O)Nc2ccc3nc(N4CCOCC4)sc3c2)oc2ccccc12
    9, 0.4, -2.4, -12, -4, 0.1%
- Cc1ccc(NS(=O)(=O)c2ccc(NC(=O)c3ccccc3C(=O)O)cc2)c(C)c1
    -25, 0.0, -5.3, 16, 3, 2.1%
- O/N=C/c1cn(-c2ccc(Cl)cc2)nn1
    -4, 0.1, 0.5, -9, 10, -3.7%
- CC(=O)Nc1ccc(OCC=C(Cl)Cl)cc1
    5, 1.8, -0.6, -8, 24, 0.3%[38.3 µM]
- CCc1sc(NC(=O)c2cc3ccccc3oc2=O)nc1-c1cccs1
    3, -0.4, -2.6, 3, -4, 11%
- Cc1cc(NC(=O)CCC(=O)N(c2ccccc2)C2(C(=O)NC3CCCCC3)CCCC2)no1
    15, 1.0, -4.9, 46, 0, -0.5%
- Cc1ccc2cc(CN(CCN3CCCC3)C(=O)Nc3ccc(F)cc3)c(=O)[nH]c2c1C
    -10, 0.0, -3.2, -3, -13, 0.1%
- NS(=O)(=O)c1ccc(CCNC(=O)c2nc(CS(=O)(=O)c3ccc(Cl)cc3)no2)cc1
    0, 0.6, 0.4, 17, 3, -1.3%
- COCCn1c(=NC(=O)CSC(C)=O)sc2cc(OC)ccc21
    2, -0.8, -8.0, 0, -5, 1.9%
- CC1=CC(c2ccccc2)n2nc(N3C(=O)C4CC=CCC4C3=O)nc2N1 (stereo not drawn)
    3, 0.6, -1.7, 2, -5, -0.1%
- O=C(c1ccc(F)c(F)c1)N1CCCc2ccccc21
    -3, ·, -1.3, ·, ·, 1.8%
- O=C(CSc1nccc(=O)[nH]1)Nc1ccc(Oc2ccccc2)cc1
    3, 0.1, -1.9, -17, -1, 4.5%
- Cc1cccc(OC(=O)CSc2nnc(-c3cccs3)o2)c1C
    ·, 1.7, ·, 17, ·, 0.9%
- Cc1ccc(S(=O)(=O)N(Cc2ccc(C(F)(F)F)cc2)C(=O)N2CCN(C)CC2)cc1
    3, 1.0, 1.5, 8, 8, 3.6%
- Cc1ccc2nc(-c3cccc(Br)c3)c(Cc3cccc(Cl)c3)n2c1
    -5, -0.1, -4.0, -8, 4, 1.0%
- CCOC(=O)N1CCN(C(=O)CCN2C(=O)/C(=C\c3ccccc3OC)SC2=S)CC1
    4, 0.2, -4.1, 13, 11, 0.1%
- CCOC(=O)CSc1nc(C)cc(Oc2ccc(=O)n(C)n2)n1
    2, -0.4, -0.2, -1, -6, 1.6%
- O=C(NCc1ccccc1F)C1CCCN1C(=O)NC1CCCCC1 (stereo not drawn)
    2, -0.9, -1.5, -1, 2, 3.0%
- COc1ccc(NC(=O)N2CCCC2C(=O)NCc2cccs2)cc1 (stereo not drawn)
    9, -0.9, -3.3, -3, 14, 3.1%
- COc1ccc(-c2nc3c(C#N)c[nH]n3c2NC2CCCCC2)cc1
    ·, 2.4, ·, 5, ·, 2.5%
- CC(=NCc1ccco1)c1c(C(F)(F)F)[nH]n(-c2nc3ccccc3s2)c1=O
    -1, -0.9, -4.2, -6, -1, 15%
- O=C(C[C@@H]1C/C=C\C[C@H](Cc2ccc(F)cc2)C(=O)OC[C@H]2CCCN2C1=O)NCCO
    3, 0.3, -0.9, 6, 3, 0.1%
- Cc1nc2ccccc2c(N)c1C(=O)/C=C/c1ccccc1
    0, -0.6, -3.1, -19, -19, -0.9%
- CCN(CC)Cc1c(CC(C)C)oc(C)c1C(=O)O
    0, -0.2, -0.8, -12, 0, 0.2%[38.3 µM]
- CCOC(=O)c1sc(N=NC2=C(O)CC(C)(C)CC2=O)c(C(=O)OCC)c1C
    -2, -1.2, -5.5, -10, -1, 7.3%
- CC(C)(C)OC(=O)N[C@@H](CCCCNC(=O)OCc1ccccc1)c1nnc([C@H](CCCCNC(=O)OCc2ccccc2)NC(=O)OC(C)(C)C)o1
    4, 5.0, -2.1, -18, ·, -1.1%
- CCN(CC)C(=O)c1sc(NC(=O)Cc2cccs2)c(C#N)c1C
    3, 3.8, -0.9, 3, 16, 2.2%[38.3 µM]
- Cc1cc(C)c2c(n1)SCC(=O)N2CC(=O)Nc1cc(F)ccc1F
    2, -0.7, 7.2, -4, 1, -1.1%
- CCc1nn(C(C)C(=O)N2CCN(c3ccccc3)CC2)c(=O)c2cc3occc3n12 (stereo not drawn)
    -2, -0.7&0.9, -2.9, -10&17, -8, 2.4%&2.5%
- CCCCNC(=S)N=Nc1c(O)[nH]c2ccccc12
    -26, 0.8, -1.8, 6, -19, 3.0%
- CC(C)CN(C(=O)Cn1c(C(F)(F)F)nc2ccccc21)c1c(N)n(Cc2ccccc2)c(=O)[nH]c1=O
    6, -0.4, -1.1, -10, 2, 4.5%
- O=C(NCCN1CCOCC1)c1ccc2c(c1)N(Cc1ccccc1F)C(=O)c1ccccc1S2(=O)=O
    0, -0.4, 6.3, -7, 2, 1.4%
- N#Cc1cccc(NC(=O)CN2C(=O)NC3(CCCCCC3)C2=O)c1
    8, 0.6, -0.2, -16, -2, 1.8%
- COc1ccc(C(=O)NC(C)Cc2cnccn2)cc1OC1CCN(C(C)C)CC1 (stereo not drawn)
    -3, 0.6, 0.8, -14, 4, 0.1%
- O=C(Nc1nncs1)C(Sc1ccccc1)c1ccccc1 (stereo not drawn)
    0, 0.5, -2.1, 45, 0, 4.8%
- O=C(c1cccc(-n2cccc2)c1)N1CCN(S(=O)(=O)c2c(F)cccc2F)CC1
    0, 1.1, -2.5, 36, -14, 1.6%
- CCOc1ccccc1NC(=O)C1COc2ccccc2O1 (stereo not drawn)
    11, 5.4, -1.8, 15, ·, -0.7%
- CCOc1ccc(N(CC(=O)Nc2ccc(F)c(F)c2)S(=O)(=O)c2c(C)noc2C)cc1
    -5, -0.1, -3.6, -8, -2, 6.3%
- CCOc1cc(C2NC(=O)NC(C)=C2C(=O)OCc2ccccc2)ccc1O (stereo not drawn)
    -69*, -0.7, -2.8, 6, 6, ·
- Cc1c(NC(=O)c2ccc(-c3ccc(F)cc3)o2)cccc1-c1nc2ncccc2o1
    ·, 1.2, ·, 0, ·, 4.4%
- COC(=O)c1nn(-c2ccc(OC)cc2)c(=O)cc1Oc1ccccc1
    0, -1.4, -3.1, -1, 6, -0.2%
- CCc1ccc(N(C(=O)c2snc(C(N)=O)c2N)C(C(=O)NCCC(C)C)c2c[nH]c3ccccc23)cc1 (stereo not drawn)
    2, 0.2, -1.5, 2, 10, 6.2%
- Oc1c(Cl)cc(CN2CCOCC2)c2cccnc12
    -89*, 0.2, -6.4, 3, ·, ?
- COc1ccc(-c2csc(Nc3ncccn3)n2)cc1C
    4, -0.1, -0.4, 27, 1, 1.5%
- Cc1cc(=O)[nH]c2c1cnn2Cc1ccccc1
    -3, 0.4, -0.2, 0, 13, -0.6%
- Cc1cccc(NC(=O)CSc2nc3ccccc3nc2N2CC(C)OC(C)C2)c1 (stereo not drawn)
    17, 0.8, -4.1, 21, 16, 5.5%
- CC(C)(C)NC(=O)C(Cc1ccccc1)NS(=O)(=O)c1ccc2c(c1)CCC(=O)N2 (stereo not drawn)
    7, 1.3, -2.0, -8, 3, 16%[38.3 µM]

Some entries already given, reduced to D2 agonist.
SMILES	D2 agonist
O=C(C[C@@H]1C/C=C\C[C@H](Cc2ccc(F)cc2)C(=O)OC[C@H]2CCCN2C1=O)NCCO	-0.9
Cc1nc2ccccc2c(N)c1C(=O)/C=C/c1ccccc1	-3.1

(list continues)
Below each compound: Six1-Eya2 blk, TRPML1 ag, D2 agonist, TRPML1 inh, CtBP-E1A blk, PINK1 expr mod
- Cc1ccc(S(=O)(=O)Cc2ccc(C(=O)N3CCCC3)o2)cc1
    5, 0.7, -0.7, 7, -3, 2.0%
- Cc1ccc(CC(=O)Nc2ccccc2-c2ccccc2)cc1C
    14, 1.3, -9.4, -3, 16, 21%
- C#CCSc1nc2[nH]ncc2c(=O)[nH]1
    0, 1.8, -1.4, 10, 17, -1.1%
- COc1ccccc1N1CCN(C(=O)C2CC=CCC2C(=O)O)CC1 (stereo not drawn)
    -5, -1.2, -1.9, 9, 4, -2.3%
- O=C(Nc1cccnc1N1CCOCC1)c1cccs1
    7, -0.2, -6.6, -2, 8, -0.2%
- CCOC(=O)C1CCCN(C(c2ccccn2)c2c(C)[nH]c3ccccc23)C1 (stereo not drawn)
    10, -0.6, -0.2, -11, 2, 5.0%
- Cc1ccc(-c2csc(NC(=S)NC(=O)/C=C/c3ccco3)n2)cc1
    -13, 1.5, -3.6, -7, -8, 9.7%[38.3 µM]
- COc1ccc(-n2cc(-c3ccccc3)[nH]c2=S)c(OC)c1
    -17, 1.8, 9.5, -1, -20, 1.1%
- Cc1ccc2cccc(NC(=O)c3ccc(-c4ccc(Br)cc4)o3)c2n1
    ·, -0.2, ·, 22, ·, -0.7%
- CC(=O)N1CCc2cc(S(=O)(=O)CCC(=O)Nc3ccc4c(c3)OCCO4)ccc21
    1, 0.5, -0.7, 13, -1, 0.2%

Single entries from the results shown.
TRPML1 inh result of `CCOc1ccccc1NC(=O)C1COc2ccccc2O1` (stereo not drawn) → 15
TRPML1 ag result of `Cc1c(NC(=O)c2ccc(-c3ccc(F)cc3)o2)cccc1-c1nc2ncccc2o1` → 1.2
